A1 inh: inhibitors of the anti-apoptotic protein A1, read as caspase activation; MEF A1-2A-BIM cells, Caspase-Glo 3/7 luminescence, 3 h; percent of clofoctol response, vehicle zero; caspase activation, % (no concentration beside the values); hit rate 0.066% among 330,000; AID 2462;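 active = over half of replicate activation scores above 10%, or exactly half above 10 with the replicate mean above 10; inconclusive = replicate mean below 10 yet half the replicates above 10; inactive = over half of replicates below 10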;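 note: wells of about 30 µL received 50 nL stock; many hits fall short of the cut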
T cruzi inh: blocks replication of Trypanosoma cruzi | T. cruzi beta-gal in NIH3T3, luminescence, 90 h | inhibition, % (concentration not given with the values) | hit rate 1.4% among 300,000 | AID 1885;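 active = mean inhibition across valid replicates above about 55%, limit read from the data; inconclusive = mean below that limit but half or more replicates reach it; inactive = mean below it, under half of replicates reach it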;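 note: signal also drops with host cell toxicity which is not excluded here; 0% = plate median of DMSO wells and 100% = zero luminescence signal; higher percent means less beta-gal luminescence so fewer parasites; stock transfer was 50 nL into about 50 µL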
Beta apoptosis: blocks beta cell apoptosis. INS-1E cytokine-induced death, ATP luminescence, 48 h; percent of positive-control rescue, neutral wells zero. protection from apoptosis, % (no concentration beside the values). hit rate 0.8% among 300,000;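 active = all replicates at 75% or more, or half of them and the mean; inconclusive = half reach 75% but not the mean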;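 note: 0% = cytokine-treated negative control wells and 100% = positive control rescue; higher means more ATP so stronger rescue from cytokine killing; wells of about 40 µL received 100 nL stock; the first replicate is given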
rRNA inh HTS: selective bacterial rRNA inhibition in E. coli | E. coli WT GFP vs humanized-ribosome RFP mutants, fluorescence, 24 h; active compounds read low; DMSO median 0, no signal -100 | GFP signal change (wild-type ribosome), % (no concentration beside the values) | hit rate 1.6% among 350,000;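 active = significant combined selectivity score with lowered wild-type GFP, culture density cut under 30%, mutant RFP and density less affected; inactive = any of these conditions unmet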; note: one replicate is shown; some compounds called inactive have numbers as strong as hits
Calb FLC: C. albicans growth modulation with fluconazole. C. albicans CaCi-2 (fluconazole-resistant clinical isolate) + fluconazole, Alamar Blue growth, 48 h. growth inhibition, % (test concentration not listed). hit rate 0.57% among 300,000. AID 1979;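 active = most replicates above 75%; inconclusive = exactly half above 75%; inactive = most below 75%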;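 note: all wells also contain fluconazole at 8 µg/ml as a sub-toxic cotreatment; 0% = median of DMSO wells and 100% = median of geldanamycin control wells; wells of about 8 µL received 7.5 nL stock; the first replicate is given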
MLL AF4-AF9 inh: inhibitors of human MLL-AF4/AF9 interaction; inhibition, % at 10 µM; AlphaScreen, biotin-AF4 peptide binding to FLAG-AF9; hit rate 0.47% among 350,000; AID 651704;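 active = every replicate reaching a set inhibition limit, whatever the replicate mean, cut at about 25% in these data; inconclusive = mean inhibition reaches that limit but some replicates miss it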;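 note: 0% = plate neutral control median and 100% = total signal loss; the record names both 10 and 1 µM as test concentration; the first replicate is given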
Target sequence (P42568 whole entry, looked up): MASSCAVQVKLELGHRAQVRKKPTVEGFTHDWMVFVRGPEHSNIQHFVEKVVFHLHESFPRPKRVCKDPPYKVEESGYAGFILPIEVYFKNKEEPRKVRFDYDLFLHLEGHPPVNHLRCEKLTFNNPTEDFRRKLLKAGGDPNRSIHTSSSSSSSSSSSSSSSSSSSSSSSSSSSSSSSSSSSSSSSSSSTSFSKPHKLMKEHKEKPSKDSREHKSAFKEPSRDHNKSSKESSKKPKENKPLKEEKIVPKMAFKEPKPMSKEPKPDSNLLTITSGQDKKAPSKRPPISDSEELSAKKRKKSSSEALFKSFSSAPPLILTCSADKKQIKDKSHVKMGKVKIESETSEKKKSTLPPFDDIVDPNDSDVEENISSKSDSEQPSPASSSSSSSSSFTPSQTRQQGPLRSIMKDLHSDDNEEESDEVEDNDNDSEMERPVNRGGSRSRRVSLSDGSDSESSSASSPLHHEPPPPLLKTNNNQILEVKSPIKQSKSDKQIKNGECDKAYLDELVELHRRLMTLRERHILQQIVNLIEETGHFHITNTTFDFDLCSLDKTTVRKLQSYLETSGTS
Vif A3G: HIV-1 Vif–A3G interaction blockers – biochemical, TR-FRET, GST-Vif 1-94, biotin-A3G peptide, dose response retest, primary screen (AID 1117319). TR-FRET GST-Vif / biotin-A3G peptide binding; higher % means a stronger effect; test concentration not given here; strong numbers were not always called active. inhibition, %; hits with a dose series show IC50 in µM. hit rate 0.57% among 260,000;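 active = above the screen mean plus three standard deviations and confirmed in dose response; inconclusive = results disagree or hit not tested in dose response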;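 note: Vif residues 1-94 fused to GST binding biotinylated APOBEC3G peptide 110-148; 0% = full assay without inhibitor and 100% = GST in place of GST-Vif; retest series ran down from 100 µM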
RanGTP-Impb inh: disruptors of Ran-importin-beta complex formation – biochemical, FRET, CFP-Ran, YFP-importin-beta, homogeneous, primary screen. cell-free CFP-Ran/YFP-importin-beta FRET ratio. inhibition, % (concentration not given with the values). hit rate 1.1% among 300,000. AID 2216;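 active = most replicates above 15%; inconclusive = exactly half above 15%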;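 note: 0% = DMSO wells and 100% = Ran loaded with GDP instead of GTP; wells of about 40 µL received 100 nL stock; the first replicate is given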
rRNA inh HTS OD600: further read-out of rRNA inh HTS, marked with its call; OD600 change, %; measured here: OD600 growth;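 optical density of the mix in the first replicate; 0 = DMSO median and -100 = no signal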
rRNA inh HTS RFP: second read-out of rRNA inh HTS, no call of its own (marks repeat the call); RFP signal change, %; measured here: RFP humanized mutant strains;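 first replicate; 0 = DMSO median and -100 = no signal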
An asterisk follows results filed as active; ? = inconclusive; / = not tested or not shown; & = joins results of further samples.

Each structure is followed by: A1 inh, T cruzi inh, Beta apoptosis, rRNA inh HTS, rRNA inh HTS OD600, rRNA inh HTS RFP, Calb FLC, MLL AF4-AF9 inh, Vif A3G, RanGTP-Impb inh
Cc1ccccc1NC(=O)CN1C(=O)CSc2ccccc21
    0.5, -11, -2, 7, 8, -0.1, -10, -4.1, /, 3.2
Cc1ccc(C)c(S(=O)(=O)N2CCN(C(=O)Nc3ccccc3)CC2)c1
    -0.5, 10, -4, -13, -13, 1.2, -2, 0.3, -1%, 2.1
COc1cc(OC)cc(C(=O)N2CCN(C(=O)c3ccc(-c4ccccc4)cc3)CC2)c1
    -0.7, 8, 6, -2, -6, -0.9, 16, -0.5, -1%, 0.4
CCOC(=O)C1CCN(C(c2cccnc2)c2c(NC(=O)c3ccco3)sc(C)c2C)CC1 (stereo unspecified)
    0.0, 65*, -6, /, /, /, ?, /, 13%, -1.0
O=C(O)Cn1nc2c3c(cccc3c1=O)-c1ccccc1-2
    0.2, -14, -2, -9, -40, 6.0, 5, -1.0, 3%, -1.5
Cc1cc(N(CN2CCCC2=O)C(=O)c2ccc(F)cc2)no1
    0.5, -5, 1, /, /, /, 2, /, 8%, -1.1
Cc1cc(NCc2ccccc2)c2ccccc2n1
    -0.8, 12, 12, 34, 7, -7.4, 14, 1.6, /, 1.2
C1CCN(c2nc3nonc3nc2N2CCCCC2)CC1
    -0.4, -2, -11, -17, -13, -1.8, 7, 1.7, 2%, /
CCOC(=O)NC(=O)COC(=O)Cc1cc(OC)c(OC)c(OC)c1
    1.0, -4, 2, /, /, /, /, /, -2%, -0.1
O=S(=O)(Nc1ncccn1)c1ccc(NC(=S)N2CCN(c3cccc(C(F)(F)F)c3)CC2)cc1
    0.0, 1, -3, -30, -29, -5.9, 13, -0.3, 1%, 1.1
CCN(C(=O)COC(=O)CCC(=O)c1cccs1)c1ccccc1
    0.7, /, 3, -5, -5, -4.4, /, -11, /, /
CN1CCN(C(=S)NC(=O)/C=C/c2cccc3ccccc23)CC1
    0.4, -10, -4, /, /, /, -19, /, -7%, -4.0
Cc1ccc(OC(C)C(=O)Nc2ccccc2C(=O)NCc2cccnc2)cc1C (stereo unspecified)
    1.3, 23, -4, -32, -52, -7.7, 26, 6.5, /, 5.2
O=C(O)c1ccc(CP(=O)(c2ccccc2)c2ccccc2)cc1
    0.7, -24, 0, 4, 7, -1.3, -7, 1.4, /, 0.9
C[N+]1(CCOc2ccc([N+](=O)[O-])cc2)CCOCC1
    0.6, -13, 3, /, /, /, -22, /, -5%, 3.0
Cc1c(C2=CCN(S(=O)(=O)c3ccc(Cl)cc3)CC2)c2ccccc2n1C
    -0.2, 11, 7, /, /, /, 1, /, -5%, ?
CCCCS(=O)(=O)Nc1ccc(C(=O)NCC2CCCO2)cc1 (stereo unspecified)
    -0.6, -7, -9, /, /, /, 7, /, 5%, -5.8
COCCn1c(SCC(=O)Nc2cc(C)on2)nc2ccccc2c1=O
    0.5, /, -3, 6, 11, -1.1, /, -0.5, 3%, /
Cc1onc(-c2ccccc2Cl)c1C(=O)NCc1cccnc1
    0.1, -7, -4, /, /, /, 7, /, 10%, 6.5
S=c1[nH]nc(-c2ccc(Br)cc2)n1-c1ccc2c(c1)OCCO2
    0.9, -13, -1, -14*, 0.7*, 6.2*, 20, -8.5, 10%, 1.1
COc1ccc(C(=O)NC(=S)N2CCCc3ccccc32)cc1OC
    0.7, ?, -3, -20, -22, -2.0, -30, 1.0, /, 0.6
COc1ccccc1C1C(C(N)=O)=C(C)Nc2nc(-c3ccc(Cl)cc3)nn21 (stereo unspecified)
    -0.7, -4, -6, -1, -5, -1.1, 3, -8.2, 19%, -3.7
COCCn1c(SCC(=O)Nc2ccc(OC)cc2OC)nc2ccccc2c1=O
    1.7, -6, -3, 13, 6, -0.6, 0, -2.8, /, 21*
O=C1Nc2c(c(=O)[nH]c(=O)n2-c2ccccc2)C1(Nc1ncccn1)C(F)(F)F (stereo unspecified)
    -0.2, -6, -3, /, /, /, -9, /, 6%, 2.3
Cc1cc(=O)oc2c(C)c(OC(C)C(=O)NCc3ccccn3)ccc12 (stereo unspecified)
    -0.1, 7, 1, -5, -4, 1.4, /, 1.5, /, 0.2
Cc1cc(N2CCN(C(=O)c3ccco3)CC2)nc(-c2ccccc2)n1
    1.3, -1, -2, /, /, /, 2, /, -5%, 0.2
Cc1cc(S(=O)(=O)NCc2cccnc2)ccc1-n1cnnn1
    1.8, -2, -3, 7, 2, -2.5, -2, 6.9, 32%, -1.0
COc1cccc(-c2ccc(C#N)c(SCC(=O)NCCc3cccc(Cl)c3)n2)c1
    0.6, 32, -1, /, /, /, 2, /, -23%, 6.1
CCOC(=O)Cc1c(C)nc2cc(C)nn2c1C
    0.6, -14, -3, /, /, /, -3, /, -2%, 7.1
Cc1cccc(C(=O)Nc2nnc(-c3ccc(C(C)(C)C)cc3)s2)c1
    -0.1, 2, 1, /, /, /, -5, /, -21%, 3.6

Arranged by the number under rRNA inh HTS RFP (descending): three from the list above
| SMILES | rRNA inh HTS RFP |
| --- | --- |
| COc1cc(OC)cc(C(=O)N2CCN(C(=O)c3ccc(-c4ccccc4)cc3)CC2)c1 | -0.9 |
| COc1ccccc1C1C(C(N)=O)=C(C)Nc2nc(-c3ccc(Cl)cc3)nn21 (stereo unspecified) | -1.1 |
| O=S(=O)(Nc1ncccn1)c1ccc(NC(=S)N2CCN(c3cccc(C(F)(F)F)c3)CC2)cc1 | -5.9 |

Records listed above printed as active in RanGTP-Impb inh.
| SMILES | rRNA inh HTS | rRNA inh HTS OD600 | rRNA inh HTS RFP | MLL AF4-AF9 inh | Vif A3G | RanGTP-Impb inh |
| --- | --- | --- | --- | --- | --- | --- |
| COCCn1c(SCC(=O)Nc2ccc(OC)cc2OC)nc2ccccc2c1=O | 13 | 6 | -0.6 | -2.8 | / | 21* |

Following part
canonical_smiles | A1 inh | T cruzi inh | Beta apoptosis | rRNA inh HTS | rRNA inh HTS OD600 | rRNA inh HTS RFP | Calb FLC | MLL AF4-AF9 inh | Vif A3G | RanGTP-Impb inh
COc1ccc(N(CC(O)Cn2cnc3ccccc32)S(=O)(=O)c2ccc(C)cc2)cc1 (stereo unspecified) | 0.7 | 1 | -4 | -12 | -11 | 20 | -11 | 13 | -1% | -0.2
C=CCOC(=O)C1C(=O)CC(C)(O)C(C(=O)OCC=C)C1c1ccc(OC)cc1 (stereo unspecified) | 0.5 | -15 | 5 | / | / | / | 1 | / | -13%&-4% | 0.3
C=CCn1c(SCC(=O)Nc2c(C)n(C)n(-c3ccccc3)c2=O)nc2sc(C)c(C)c2c1=O | -0.3 | 10 | -5 | / | / | / | 18 | / | -1% | -1.0
Cc1ccc(CN2CC(C(=O)N3CCN(c4ccccc4O)CC3)CC2=O)cc1 (stereo unspecified) | 0.4 | -9 | -8 | -1 | -3 | -1.7 | -4 | 2.1 | 2% | 1.0
CCCCN1C(=O)C2C(C(=O)Nc3cccc(OC)c3)C3C=CC2(O3)C1C(=O)NC1CCCCC1C (stereo unspecified) | 0.4 | -16 | -1 | / | / | / | -7 | / | 8% | -0.1
CCOC(=O)CCCCCN1C(=O)c2cccc3cccc(c23)C1=O | -0.4 | 3 | 4 | -23 | -23 | -4.0 | -11 | -1.5 | / | 2.0
O=C(c1ccc(=O)[nH]c1)N1CCN(S(=O)(=O)c2ccc(Cl)cc2)CC1 | 0.2 | 1 | -2 | 11 | 15 | -1.1 | -12 | 0.0 | / | -0.2
Cc1ccc(/C=C/C(=O)O)cc1S(=O)(=O)N1CCCCC1 | -0.1 | -12 | -8 | 9 | 7 | 1.0 | -7 | -0.9 | -8% | -2.4
CCOCCCNCc1ccc(OC)c(OC)c1 | 0.1 | 15 | 4 | / | / | / | -7 | / | 5% | 2.3
COC(=O)Oc1ccc(/C=N/NC(=O)CN(c2ccccc2Br)S(C)(=O)=O)cc1OC | 0.8 | -9 | -5 | 0 | -6 | -3.8 | -24 | 5.0 | / | 2.0
Cc1cc(CN2CCCC(C(=O)Nc3cccc(-n4cccn4)c3)C2)cc(C)c1O (stereo unspecified) | -0.5 | 46 | 3 | -1 | -8 | -1.2 | -6 | 6.9 | / | 0.0
C=CCN1CC(c2nc3ccccc3n2Cc2cccc3ccccc23)CC1=O (stereo unspecified) | -1.4 | 2 | 10 | / | / | / | 7 | / | 5% | 1.4
CC(OC(=O)C1CC1)C(=O)Nc1cccc(S(=O)(=O)N2CCOCC2)c1 (stereo unspecified) | -0.3 | / | -2 | / | / | / | / | -2.0 | -6% | /
O=[N+]([O-])c1ccc(-c2cc(-c3ccc(Cl)cc3)n[nH]2)cc1 | -0.8 | 21 | 5 | / | / | / | 20 | / | -10% | -1.2
CCN(CC)CCNC(=O)CCCCCn1c(=O)[nH]c2cc(C(=O)OC)ccc2c1=O | 1.8 | -18 | 2 | / | / | / | -4 | / | 7% | ?
COCCCN=C1NN=C(c2cc(C)n(-c3ccccc3F)c2C)CS1 | -1.1 | -1 | 36 | -2 | -5 | -4.5 | -10 | 8.1 | -6% | -4.3
COc1ccc(NC(=O)CCCn2c(=O)[nH]c3ccccc3c2=O)cc1 | -0.6 | -8 | -4 | / | / | / | 1 | / | ? | -2.7
CCOC(=O)c1ccc(NC(=O)COc2cc3oc(=O)c(CC(C)O)c(C)c3cc2Cl)cc1 (stereo unspecified) | -1.8 | 2 | -6 | 3 | 4 | 5.6 | -4 | -4.8 | 6% | 5.2
O=C(Nc1cccc(S(=O)(=O)NC2=NCCCCC2)c1)c1cc(-c2ccncc2)nc2ccccc12 | 1.1 | 49 | 2 | -10 | -6 | 5.7 | ? | 3.4 | 19% | 0.9
Cc1ccc(C)c(OCc2nc3ccc(S(=O)(=O)Nc4c(C)n(C)n(-c5ccccc5)c4=O)cc3[nH]2)c1 | -0.3 | -3 | 1 | -21 | -42 | -3.7 | 15 | -1.0 | / | -0.4
O=C(Nc1nccs1)c1ccc(COc2c(F)c(F)cc(F)c2F)o1 | -0.5 | / | 0 | / | / | / | / | -0.9 | -3% | /
COc1ccc(CCNC(=O)CCCn2nc(C)c([N+](=O)[O-])c2C)cc1OC | 0.2 | 6 | -9 | 13 | 7 | 2.7 | 5 | 4.3 | 5% | ?

Looked up above.
Cc1ccccc1NC(=O)CN1C(=O)CSc2ccccc21 | Calb FLC: -10
COCCn1c(SCC(=O)Nc2ccc(OC)cc2OC)nc2ccccc2c1=O | A1 inh: 1.7
Cc1c(C2=CCN(S(=O)(=O)c3ccc(Cl)cc3)CC2)c2ccccc2n1C | Calb FLC: 1

Assay outcomes from PubChem BioAssay.

The list is partial; count on the stated rates, not on these rows.
